# ClpP mod: qHTS Assay for Activators of ClpP; purified B. subtilis ClpP, FRET peptide cleavage, 20 min; Potency, µM (titrated, usually from 57.5 µM), without a hit: at the top dose activity change, negative = active; ATP-dependent Clp protease proteolytic subunit (Bacillus subtilis (strain 168)), P80244; AID 651965, 2013; hit rate 1.9% among 340,000; active = well fitted falling curve with a large enough effect; inconclusive = small, poorly fitted or top-dose-only effect; inactive = no such curve, though single readings can be large or run the other way; further: potency means the concentration at half of the fitted maximal effect; the source files actives as falling curves though it sought activators and does not explain the sign; nearly all actives have a fitted effect of over 65% in size; many hits overshoot -100%
# Target sequence (P80244 whole entry, looked up): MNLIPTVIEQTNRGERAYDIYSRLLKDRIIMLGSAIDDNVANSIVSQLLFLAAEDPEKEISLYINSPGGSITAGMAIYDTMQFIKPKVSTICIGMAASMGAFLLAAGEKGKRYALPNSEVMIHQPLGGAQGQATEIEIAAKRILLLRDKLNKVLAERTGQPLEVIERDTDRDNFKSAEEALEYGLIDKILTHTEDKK
#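 FRET quenching reversal measured ClpP activation: 10 microg/mL B. subtilis ClpP at pH 8 with the FRET-FV decapeptide, read at 430 nm after 320 nm excitation. The 20-min minus 0-min signal was scaled between DMSO/no-enzyme wells and ADEP (5.8 microM final).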
# gsp antagonist: qHTS for Antagonists of gsp, the Etiologic Mutation Responsible for Fibrous Dysplasia/McCune-Albright Syndrome: qHTS; hit rate 0.4% among 340,000; gsp-mutant cells, cAMP HTRF, 30 min; control for the full effect not named in the record; AID 624288, 2012; Potency, µM (titrated, usually from 76.9 µM), inactives show at the highest dose activity change, negative = inhibition, actives largely listed as inhibitors; active = falling curve of any shape with a large fitted effect; inconclusive = falling curve, mostly with a smaller effect; inactive = flat or rising curve; cell line not stated here;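 further: intracellular cAMP measured with PDE inhibitor Ro 20-1724 present during compound exposure; potency means the concentration at half of the fitted maximal effect; on the % scale 0 is the no-effect control and ±100 the full control effect; nearly all actives have a fitted effect of over 65% in size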
#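 G418-selected cells were plated in DMEM/10% FBS for 16-24 h at 37C, then treated with compounds plus the PDE inhibitor […] (300 uM solution added) for 30 min at 37C. Intracellular cAMP was measured by HTRF after 30 min lysis at room temperature.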
# TRPV1 potentiator: HTS Assay for Compounds that Act as Potentiators of the Vanilloid Receptor 1; Transient receptor potential cation channel subfamily V member 1 (Homo sapiens), Q8NER1; TRPV1-expressing cells, Fluo-8 calcium influx, capsaicin EC20 potentiation; host cell line not named in the record; control for the full effect not named in the record; potentiation, % at 8.33 µM; hit rate 0.02% among 320,000; AID 540277, 2011; active means potentiation above 80%; inconclusive means 30% to 80%; inactive means below 30%; further: 0% is about no effect
#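 TRPV1-expressing cells were cultured overnight at 35.5C and loaded with Fluo-8 calcium dye for 40 to 90 min at room temperature. After a 10 s baseline, compound was added and calcium influx was read kinetically for 3 min (ex 480/em 520 nm).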
# gsp ag: qHTS for Agonist of gsp, the Etiologic Mutation Responsible for Fibrous Dysplasia/McCune-Albright Syndrome: qHTS; AID 624287, 2012; hit rate 0.13% among 340,000; Potency, µM (series often up to 76.9 µM), inactives show top-dose activation (cAMP increase), most hits filed as activators; gsp mutant cells, cAMP HTRF, 30 min; control for the full effect not named in the record; active = well fitted activation curve with a large enough effect; inconclusive = small, poorly fitted or top-dose-only effect, or another doubt; inactive = no such curve, though single readings can be large or run the other way; cell line not stated here;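 further: phosphodiesterase inhibitor Ro 20-1724 added with compounds to block cAMP breakdown; potency means the concentration at half of the fitted maximal effect; nearly all actives have a fitted effect of over 60% in size; about a fifth of the inactives were tested at one dose only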
#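 Cells in DMEM/10% FBS with G418 were pretreated with compounds in DMSO plus […] (300 uM stock) for 30 min at 37C. cAMP was measured by HTRF (cAMP-d2 plus anti-cAMP antibody-K) after 30 min at room temperature.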
# Menin MLL FP FL: qHTS Assay for Inhibitors Targeting the Menin-MLL Interaction in MLL Related Leukemias: Competition With Fluorescein Labeled MLL-derived Peptide. Fluorescence polarization, fluorescein-MLL peptide displacement from menin. FP activity change, % at 61.4 µM. 290,000 tested, under 10 active. AID 1766, 2009; inconclusive = falling polarisation curve, or a change in total fluorescence; inactive = total fluorescence flat and polarisation flat or rising; no compound was filed as active; the % refers to the polarisation; negative = inhibition;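 further: % of control where 0% means no effect; inhibitors lower the polarisation; unlabelled MLL peptide was the positive control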
# D2 PAM: Beta-Arrestin HTS for Positive Allosteric Modulators of the Human D2 Dopamine Receptor: Potentiators; DiscoveRx D2 beta-arrestin cells, luminescence, 90 min; 100% = 57 uM dopamine signal; D(2) dopamine receptor (Homo sapiens), P14416; hit rate 0.23% among 360,000; potentiation, % (concentration not given with the values); AID 624464, 2012; active = potentiation of 50% or more; inconclusive = 30% to 50%; inactive = 30% or less;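 further: compound concentration not given in the record; tested on top of an EC20 dose of dopamine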
# Target sequence (P14416 whole entry, looked up): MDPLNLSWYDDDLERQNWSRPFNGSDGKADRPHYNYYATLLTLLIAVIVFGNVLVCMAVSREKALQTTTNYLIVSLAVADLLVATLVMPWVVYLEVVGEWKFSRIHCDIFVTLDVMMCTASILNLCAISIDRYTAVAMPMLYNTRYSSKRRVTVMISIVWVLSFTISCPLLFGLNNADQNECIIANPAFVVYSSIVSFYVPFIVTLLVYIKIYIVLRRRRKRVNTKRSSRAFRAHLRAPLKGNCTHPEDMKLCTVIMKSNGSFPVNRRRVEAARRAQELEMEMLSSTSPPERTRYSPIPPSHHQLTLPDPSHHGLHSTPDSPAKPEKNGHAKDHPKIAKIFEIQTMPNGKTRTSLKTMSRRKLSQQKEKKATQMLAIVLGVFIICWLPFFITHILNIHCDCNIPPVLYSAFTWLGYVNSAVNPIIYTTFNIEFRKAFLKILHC
#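 PathHunter D2 cells, attached overnight at 37 deg C, received compound in DMSO plus dopamine at EC20 (50 nM final) for 90 min at 37 deg C. Beta-arrestin recruitment was read as luminescence after 1 h with detection reagent at ambient temperature.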
# Sfp inh: qHTS Assay for Inhibitors of Bacillus subtilis Sfp phosphopantetheinyl transferase (PPTase); 4'-phosphopantetheinyl transferase ffp (Bacillus subtilis), Q9F4F7; Biochemical Sfp PPTase activity, qHTS; Potency, µM, without a hit: max response, negative = inhibition, usual class: inhibitors; hit rate 3.5% among 310,000; AID 1490, 2009; active means well fitted inhibition curve with a large enough effect; inconclusive means small, poorly fitted or top-dose-only effect, or another doubt; inactive means no such curve, though single readings can be large or run the other way;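 further: the enzyme is Sfp with the accession as filed and its product quenches rhodamine fluorescence; potency means the concentration at half of the fitted maximal effect; 0% = enzyme reaction without inhibitor and -100% = no enzyme wells; top concentration of the series not given in the record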
#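 Step 1, compound plus 15 nM Sfp-PPTase, 15 min, room temperature. Step 2, add rhodamine-CoA (5 uM) and BHQ-2-YbbR (12.5 uM). Step 3, read 525/598 nm fluorescence at 0 and 30 min.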
# Active calls of the source: *; ? = inconclusive; . = no result given; & = joins results of further samples; [ ] = remark or other dose. Not a hit list, and some 5.1% of all compounds hit somewhere here.
canonical_smiles	ClpP mod	gsp antagonist	TRPV1 potentiator	gsp ag	Menin MLL FP FL	D2 PAM	Sfp inh
Cc1ccc(N2C(=O)N3[C@H](c4ccc(Br)cc4)[C@@H]4C(=O)N(C(C)(C)C)C(=O)[C@@H]4[C@]3(C)C2=O)cc1	-0.5%	-7%	11	9%	-11	-10	-2%
Cc1ccc(NC(=O)CSc2nc3ccccc3c(=O)[nH]2)cc1[N+](=O)[O-]	0.9%	-9%	.	?	.	-11	.
COc1ccc(C(=O)NC2=NCCS2)cc1S(=O)(=O)N1CCCCC1C (stereo not given)	-3.7%	-2%	-13	6%	-0.5	-46	0%
CC1(C)CC(=O)C2=C(C1)Nc1ccccc1S2	.	?	-11	2%[15.4 µM]	?	0	0%
CCOc1ccccc1C(=O)NC(C(=O)NCc1ccc(F)cc1)C(C)C (stereo not given)	.	1%	-1	-10%[15.4 µM]	2.7	-2	3%
COc1ccc(/C=C/C(=O)c2c(C)nc3ccccn23)cc1	-0.1%	4%	8	-8%	0.9	-18	5%
O=C1c2ccccc2C(O)(c2ncc[nH]2)N1CCc1ccccc1 (stereo not given)	0.6%	7%	1	-26%	-1.4	-4	-26%
O=C(Nc1ccc2ccccc2c1)c1ccccc1[N+](=O)[O-]	.	-3%	.	-31%[inhibitor]	.	-4	.
COc1cc(NC(=O)c2nnn(Cc3ccc(SC)cc3)c2N)cc(OC)c1	-13%	-27%	0	-63%[inhibitor]	-1.7	4	5%
Cc1ccc(C(=O)NCC(=O)Nc2ccc(C)c(S(=O)(=O)Nc3ccc(Cl)cc3)c2)s1	.	-22%	1	-7%[15.4 µM]	4.7	-9	-25%
CCOc1ccc(NC(=O)c2ccc(S(=O)(=O)N3CCOCC3)cc2)cc1	.	-1%	-12	24%	-4.9	-4	14%
CCCN(C(=O)c1nc2nccc(C)n2n1)c1c(N)n(Cc2ccccc2)c(=O)[nH]c1=O	1.5%	13%	-9	26%	.	-6	.
CCCCCC(=O)Nc1c2c(nc3ccccc13)CCC2	0.0%	2%	-6	-15%	1.7	1	1%
CCN(Cc1ccccc1)C(=O)c1[nH]c2ccc(OC)cc2c1C	.	-7%	20	-36%[inhibitor]	15	1	2%
O=C(CSc1nc(Nc2ccccc2)nc(N2CCOCC2)n1)N1CCc2ccccc21	-4.8%	-6%	7	-107%[inhibitor]	-1.1	-5	12%
Cc1ccc(OCC(=O)NC(=S)Nc2ccc(S(=O)(=O)Nc3cc(C)on3)cc2)c(Br)c1	-1.0%	?	5	-17%	0.6	-5	20%
O=C(CSc1nnc(-c2cccnc2)n1Cc1ccco1)c1ccc(Br)cc1	-3.2%	-22%	-3	-17%	-2.9	-14	-5%
COc1cccc(/C=N/NC(=O)N/N=C/c2cccc(OC)c2O)c1O	.	?	-4	-36%	0.0	-5	7%
Cc1cc(C)n(C(=O)CNC(=O)C2COc3ccccc3O2)n1 (stereo not given)	1.8%	3%	-22	-41%[inhibitor]	1.4	8	4%
COc1ccc(-c2noc(CCC(=O)N3CCN(c4ccccc4C)CC3)n2)cc1	-2.5%	-11%	.	.	.	0	.
Cc1ccc(CN2CC(C(=O)Nc3cccc(C)n3)CC2=O)cc1 (stereo not given)	.	4%	8	5%[15.4 µM]	.	-2	.
Cc1ccc(OCc2ccccc2C)c([N+](=O)[O-])n1	.	-4%	-1	3%[15.4 µM]	0.8	-1	9%
COc1ccc(NC(=O)C2CCN(c3cnccn3)CC2)cc1OC	.	-1%	-4	6%[15.4 µM]	-0.8	-10	-9%
CCC(COC)NCc1cn(-c2ccc(OC)cc2)nc1-c1cccc(F)c1 (stereo not given)	4.0%	4%	-19	4%	-2.0	-23	-9%
CC(=O)Nc1ccccc1NC(=O)c1ccccc1	1.7%	2%	-9	-25%	2.1	0	13%
O=C(Cc1cccc2ccccc12)NN1C(=O)/C(=C\c2cccnc2)SC1=S	.	0%	0	-4%[15.4 µM]	0.1	-3	-2%
CCOc1ccccc1OC(=O)c1cc2ccccc2oc1=O	23%	1%	-20	-15%	4.4	-8	16%
Cc1cc(NS(=O)(=O)c2ccc(NC(=O)c3ccc([N+](=O)[O-])cc3)cc2)nc(C)n1	2.4%	.	.	-33%[inhibitor]	.	6	.
CC(Oc1ccc(Cl)cc1Cl)/C(N)=N/O (stereo not given)	1.6%	3%	.	0%	4.3	-16	9%
O=C(Cn1c(=O)n(Cc2ccc(F)cc2)c(=O)c2ccccc21)NCC1CCCO1 (stereo not given)	.	-2%	14	2%	-0.9	-4	10%
CC(C(=O)Nc1ccc2nccnc2c1)N1C(=O)C2C3C=CC(C3)C2C1=O (stereo not given)	4.8%	13%	4	?	2.8	-7	25%
CC(C)(C)N(Cc1ccccc1)C(=O)COC(=O)c1ccc2ccccc2n1	.	-4%	.	-18%	.	-8	.
COC(=O)N1[C@H](C)C=C[C@]1(Cc1ccccc1)C(=O)O	3.0%	9%	3	-4%	2.9&0.2	-5	3%&-5%
COc1ccccc1NC(=O)CN1C(=O)NC(CC(C)C)C1=O (stereo not given)	-4.0%	0%	5	23%	2.7	-2	3%
CCN(CC)S(=O)(=O)c1cccc(-c2nnc(SCc3ncc(-c4ccccc4)o3)n2C)c1	1.1%	-21%	-10	-27%	-0.5	-3	7%
COc1ccc(-c2cc(C(=O)Nc3cc(Br)ccc3O)no2)cc1	0.7%	14%	19	-5%[15.4 µM]	-4.9	0	-17%
CN1CCN(c2ccc(NC(=O)c3cc4ccccc4o3)cc2)CC1	0.2%	-3%	-15	-57%[inhibitor]	5.3	-15	15%
CCCCCC[N+](C)(C)CC/C=C1/c2ccccc2Sc2ccc(Cl)cc21	1.2%	13%	-7	-26%	-8.8	-9	?
COc1cccc(NC(=O)CSCC(=O)O)c1	-0.7%	8%	-5	0%	4.5	-7	11%
CCc1ccc(S(=O)(=O)Nc2c(C)nc3nc[nH]n3c2=O)cc1	.	8%	2	0%	-4.9	-2	10%
Fc1ccc(NC(=S)Nc2cc(Cl)ccc2Cl)cc1	.	17%	0	11%	8.5	-1	13%
COc1ccc(-c2oc(=O)c3cc(OC)c(OC)cc3c2C#CCCO)cc1	3.9%	-12%	.	.	.	4	.
CCOc1ccc(CN2CCN(C(=O)c3cccc(F)c3)CC2)cc1	0.4%	2%	-8	5%	1.8	-28	-22%
CC(=O)Nc1ccc2[nH]ccc2c1	-5.6%	11%	7	-3%	6.1	-6	10%
Cc1ccccc1S(=O)(=O)Cc1ccc(C(=O)NCc2ccccc2)o1	-1.6%	4%	-9	16%	-2.2	-1	-1%
NS(=O)(=O)c1ccc(N2CCN(C(=O)c3ccco3)CC2)nc1	-19%	1%	.	-5%	.	-1	.
COc1ccc(NC(=S)Nc2ccc(F)cc2)c(OC)c1	-2.0%	11%	.	3%	.	-10	.
COc1ccc(C(=O)C2CCCN(Cc3c(F)ccc(F)c3F)C2)c(OC)c1 (stereo not given)	.	-9%	-6	-32%[inhibitor]	0.1	-18	11%
CCS(=O)(=O)N1CCN(c2ccc(Cl)cc2[N+](=O)[O-])CC1	0.3%	7%	-15	-29%	3.6	-10	-2%
COc1ccc(CCNC(=O)/C=C/C(=O)O)cc1	.	.	-2	-3%[15.4 µM]	-2.6	-7	-13%
O=c1[nH]c(C2CCN(S(=O)(=O)c3ccc(S(=O)(=O)NC4CC4)cc3)CC2)nc2c1nnn2Cc1cccc(F)c1	.	?	-8	5%	11	-5	-9%
CCCCCn1c(SCc2cccc(C)c2)nc2c1c(=O)[nH]c(=O)n2C	2.0%	-15%	24	-1%	3.5	-10	8%
Cc1[nH]c(C)c(S(=O)(=O)Nc2ccccc2)c1C(=O)N1CCCC1	-0.8%	-11%	0	-2%	2.2	-3	25%
Cc1ccc(OC(=O)c2cc(=O)c3ccccc3o2)cc1	1.0%	-14%	4	-7%[15.4 µM]	-0.2	-15	19%
COc1ccc(NC(=O)NCCCCc2ccccc2)c(OC)c1	0.6%	-6%	-7	?	-5.0	-26	13%
CCNC(=S)NNC(=O)c1ccccc1Cl	-4.5%	11%	3	1%	10	-12	12%
COc1ccc(NC(=O)c2cccnc2NCCc2ccccc2)cc1	1.2%	-30%	-7	3%	3.8	2	4%
COc1ccc(-c2cc3nc(CCl)[nH]c(=O)c3s2)cc1	.	-5%	4	-9%[15.4 µM]	5.8	-3	-2%
O=C(Cn1nc(-c2ccc(Cl)cc2)c2ccccc2c1=O)Nc1cccnc1	-1.4%	-10%	3	2%	-1.7	-10	?
C=CCNC(=O)/C(=C\c1ccc(Br)cc1)NC(=O)c1ccccc1OC	.	6%	-1	-6%[15.4 µM]	?	-6	2%

# Further records.
canonical_smiles	ClpP mod	gsp antagonist	TRPV1 potentiator	gsp ag	Menin MLL FP FL	D2 PAM	Sfp inh
CC12CCC(=O)C=C1CCCC2=O (stereo not given)	.	5%	.	31%	.	-4	.
CC1CCN(C(=O)COC(=O)c2ccccc2NCCO)CC1	4.0%	.	.	-2%	.	-20	.
O=C(O)c1cc2c(cc1NC(=O)c1ccccc1OC(F)F)OCCCO2	.	0%	2	-26%	0.0	-2	22%
Cc1nc(-c2ccc(Cl)cc2)sc1C1(C)CC(c2ccc(Br)cc2)=NO1 (stereo not given)	-24%	-6%	.	25%	.	-8	.
C[C@H](CO)N1C[C@H](C)[C@H](CN(C)S(=O)(=O)c2ccccc2)Oc2ccc(NC(=O)NC3CCCCC3)cc2CC1=O	-2.3%	-6%	.	10%	.	-14	.
COC(=O)c1ccccc1S(=O)(=O)C(C)(C)C	2.0%	3%	13	-30%	0.7	-17	3%

# Screening data: PubChem, National Center for Advancing Translational Sciences (NCATS)
